LASV entry inh = qHTS for Inhibitors of binding or entry into cells for Lassa Virus; Lassa virus pseudotype entry inhibition, cell reporter; control for the full effect not named in the record; Potency, µM (highest dose often 37.9 µM), without a hit: at the top dose activity change, negative = inhibition, most hits filed as inhibitors; 300,000 tested, 1.2% active; active means well fitted inhibition curve with a large enough effect; inconclusive means small, poorly fitted or top-dose-only effect, or effect the other way; inactive means flat fitted curve, though single readings scatter; tested in HEK293 cells; further: on the % scale 0 is the no-effect control and ±100 the full control effect; nearly all actives have a fitted effect of over 50% in size; luciferase read-out
RE007 growth inh = qHTS Assay for Inhibitors of the HIV-1 protein Vpr; AID 651644, 2012; S. pombe RE007 Vpr strain, BacTiter-Glo ATP luminescence, 24 h; control for the full effect not named in the record; Potency, µM (titrated, usually from 92.2 µM), for inactives: at the highest dose activity change, negative = less growth; 360,000 tested, 0.21% active; active = well fitted falling curve with a large enough effect; inconclusive = small, poorly fitted or top-dose-only effect; inactive = no such curve, though single readings can be large or run the other way;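 further: on the % scale 0 is the no-effect control and ±100 the full control effect; nearly all actives have a fitted effect of over 50% in size; the assay follows cell death caused by Vpr and the record does not say whether a fall means rescue or toxicity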
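Fission yeast RE007 carrying one integrated HIV-1 vpr copy, seeded at OD 0.01 in PMG+AL medium with 23 nL pinned compound. Grown 24 h at 30 degrees; viability read by BacTiter-Glo luminescence after 5 min.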
NS1 inh = qHTS Assay for Inhibitors of Influenza NS1 Protein Function | 270,000 tested, 0.4% active | AID 2326, 2010 | Potency, µM (highest dose often 46.1 µM), without a hit: at the top dose activity, positive = more growth | S. cerevisiae slowed by influenza A NS1, growth recovery by OD600; further: actives are rising curves; nearly all actives have a fitted effect of over 50% in size
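Read-out: OD600 growth recovery of NS1-expressing budding yeast. Cells grown overnight at 30C in -URA glucose medium, washed, resuspended and diluted 1:100 in 2% galactose assay medium, pH 6.0. Same strain lacking NS1 served as positive control.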
Cruzain Triton = qHTS Assay for Promiscuous and Specific Inhibitors of Cruzain (with detergent) | Cruzipain (Trypanosoma cruzi), P25779 | purified cruzain, Z-FR-AMC fluorescence, 0.01% Triton | Potency, µM, for the others: max response, negative = inhibition, actives largely listed as inhibitors | 200,000 tested, 0.43% active; active means well fitted curve in the direction sought with a large enough effect; inconclusive means small, poorly fitted or top-dose-only effect, or another doubt; inactive means no such curve, though single readings can be large; an effect the other way counts as inactive or inconclusive;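 further: plate controls were neutral wells for no effect and buffer without enzyme for full effect; nearly all actives have a fitted effect of over 40% in size; top concentration of the series not given in the record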
Target sequence (P25779 123-467 limits assumed): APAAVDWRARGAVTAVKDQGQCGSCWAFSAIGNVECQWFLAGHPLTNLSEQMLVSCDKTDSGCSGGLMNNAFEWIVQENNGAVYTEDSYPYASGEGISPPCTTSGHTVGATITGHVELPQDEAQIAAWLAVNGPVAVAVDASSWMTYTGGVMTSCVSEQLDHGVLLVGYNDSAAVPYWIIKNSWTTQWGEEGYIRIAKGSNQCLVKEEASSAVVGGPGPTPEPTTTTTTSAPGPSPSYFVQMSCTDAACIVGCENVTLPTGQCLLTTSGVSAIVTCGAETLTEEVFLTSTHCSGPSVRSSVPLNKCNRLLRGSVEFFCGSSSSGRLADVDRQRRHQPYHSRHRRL
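Sodium acetate buffer (100 mM, pH 5.5) containing 5 mM DTT and 0.01% Triton X-100 hosted 1.5 nM cruzain and test compound for 15 min at room temperature. Cleavage of 2 uM Z-FR-AMC was then tracked by fluorescence.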
2A StopGo = High Throughput Screening for Foot and Mouth Disease Virus Antivirals. human cells with a luciferase reporter of 2A StopGo recoding; control for the full effect not named in the record. Potency, µM (doses to about 57.9 µM), without a hit: top-dose signal change, negative = less light. 410,000 tested, 1.2% active; active = well fitted falling curve with a large enough effect; inconclusive = small, poorly fitted or top-dose-only effect; inactive = no such curve, though single readings can be large or run the other way; tested in HEK293T cells; further: on the % scale 0 is the no-effect control and ±100 the full control effect; nearly all actives have a fitted effect of over 45% in size; luciferase light after 4 h
Marburg entry inh = qHTS for inhibitors of binding or entry into cells for Marburg Virus; 300,000 tested, 1.8% active; Marburg virus pseudotyped entry inhibition, cell reporter; control for the full effect not named in the record; about a third of the inactives were read at about 46 µM; AID 540276, 2011; Potency, µM (highest dose often 37.8 µM), inactives show top-dose activity change, negative = inhibition, actives largely listed as inhibitors; active = well fitted inhibition curve with a large enough effect; inconclusive = small, poorly fitted or top-dose-only effect, or effect the other way; inactive = flat fitted curve, though single readings scatter; tested in HEK293 cells; about a fifth of its hits are not listed in these tables; further: on the % scale 0 is the no-effect control and ±100 the full control effect; luciferase read-out
SARS PLpro yeast = qHTS of Yeast-based Assay for SARS-CoV PLP | 330,000 tested, 0.19% active | S. cerevisiae expressing SARS-CoV PLpro, growth rescue; control for the full effect not named in the record | Potency, µM (doses to about 32.9 µM), inactives show at the top dose activity, positive = growth rescue; further: 0% is about no effect; nearly all actives have a fitted effect of over 55% in size; growth read by luminescence after 48 h
Cruzain noTriton = qHTS Assay for Promiscuous and Specific Inhibitors of Cruzain (without detergent); Cruzipain (Trypanosoma cruzi), P25779; purified cruzain, Z-FR-AMC fluorescence, no detergent; Potency, µM, for inactives: max response, negative = inhibition, hits mostly inhibitors; 200,000 tested, 2.3% active; active means well fitted curve in the direction sought with a large enough effect; inconclusive means small, poorly fitted or top-dose-only effect, or another doubt; inactive means no such curve, though single readings can be large; an effect the other way counts as inactive or inconclusive;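 further: plate controls were enzyme without inhibitor for no effect and buffer without enzyme for full effect; nearly all actives have a fitted effect of over 40% in size; top concentration of the series not given in the record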
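Detergent-free condition (0.00005% Triton X-100) in acetate buffer pH 5.5 with DTT. 1.5 nM enzyme and compound were pre-mixed 15 min, then 2 uM Z-FR-AMC substrate added; reaction progress from fluorescence change between first and third reads (60 s).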
* = called active by the depositor; u = inconclusive; x = no result given; & = joins results of further samples; [ ] = remark or other dose. Unless noted, the call rests on the fitted dose curve; in most records, active means well fitted rising curve with a large enough effect; inconclusive means small, poorly fitted or top-dose-only effect; inactive means no such curve, though single readings can be large or run the other way. Potency means the concentration at half of the fitted maximal effect.

SMILES | LASV entry inh | RE007 growth inh | NS1 inh | Cruzain Triton | 2A StopGo | Marburg entry inh | SARS PLpro yeast | Cruzain noTriton
Cc1ccc(CCNC(=O)CC(C)CC2=NS(=O)(=O)c3ccccc3N2)cc1 (stereo not drawn) | -16%[46.1 µM] | -4% | 4% | x | 16% | 0%[46.1 µM] | -5% | x
CCNC(=O)c1oc2c(c1C)C(=O)CC(C)(C)C2 | -28% | 2% | -5% | 4.5% | 9% | -2% | 16% | 0%
Cn1c(C(=O)NCCc2c[nH]c3ccccc23)cc2sccc21 | x | 3% | -40% | -8.6% | 20% | x | -22% | -2%
O=C(c1cnc2n(c1=O)CCS2)N(C1CCCCC1)C1CCCCC1 | 0% | 1% | -1% | -1.1% | -20% | u | -15% | -15%
COc1ccc(Br)cc1CNC(=O)CCNC(=O)Cn1ccc2ccccc2c1=O | 6% | 5% | x | x | -21% | -1%[46.1 µM] | 1% | x
CCN(CC)CCN1C(=O)c2ccccc2NC1c1ccc(F)cc1 (stereo not drawn) | 10% | -2% | -1% | -2.9% | 12% | 9% | 6% | -9%
COC(=O)c1ccccc1NC(=O)C1CC=CCC1C(=O)O (stereo not drawn) | 2% | -6% | 1% | 3.1% | 9% | 30% | 1% | -9%
N/C(=N\O)c1ccc([N+](=O)[O-])s1 | x | -9% | -2% | x | 0% | x | 0% | x
CC(=O)N1CCC2(CC1)C/C(=N\NC(=S)Nc1ccccc1F)c1cc(O)ccc1O2 | u | 6% | x | x | -4% | u | 1% | x
COc1ccc2[nH]cc(CCN)c2c1 | u | -13% | u | 3.4%&3.3%&-0.3% | -5%&-18%&4%&-8% | u | -8% | 5%&-11%&7%
Cc1ccc(NC(=O)Cc2cccs2)cc1Cl | -29% | 2% | -50% | x | 8% | 4% | -10% | x
O=C(CCc1nnc(-c2ccccc2)o1)NC1CCCCC1 | x | -2% | -2% | x | 52%[activator] | x | 0% | x
CCN(C(=O)COC(=O)CNC(=O)c1cccc(C)c1)c1c(N)n(Cc2ccccc2)c(=O)[nH]c1=O | -4% | -1% | x | x | -13% | 23% | 1% | x
Cc1cc(C)nc(SCC(=O)c2ccc(Cl)cc2)n1 | 14% | 4% | -2% | x | -8% | 1% | 0% | x
Cc1ccc(C)c(CN2C(=O)c3ccccc3S(=O)(=O)c3ccc(C(=O)NCCCN4CCCC(C)C4)cc32)c1 (stereo not drawn) | u | x | x | 2.4% | 23% | u | x | 7%
CCOC(=O)CCc1c(C)c2ccc(OCc3cc([N+](=O)[O-])ccc3OC)cc2oc1=O | 2% | -10% | 14% | -4.2% | -12% | 3% | 2% | 27%
O=C(CN1CCC2(CC1)OCCO2)c1ccc2cc[nH]c2c1 | 26%[14.3 µM] | 4% | -9% | -2.8% | 44%[activator] | u | -1% | 3%
Cc1sc2nc3n(c(=O)c2c1C)CCCCC3 | -1% | u | -15% | -2.1% | 5% | u | -9% | -7%
COc1cccc(NC(=O)C2c3cc(OC)c(OC)cc3C(=O)N(C)C2c2cccnc2)c1 (stereo not drawn) | 14% | 6% | -9% | 8.8% | -18% | -10% | 1% | 0%
c1ccc2c(c1)Oc1cccc3cccc-2c13 | x | -3% | -4% | x | 17% | x | 0% | x
O=C1C2C3C=CC(CC3)C2C(=O)N1c1nccs1 (stereo not drawn) | -22% | 24% | 0% | -0.7% | -17% | 4% | 3% | 0%
C=CCSc1nc2ccccc2n1S(=O)(=O)c1ccc(C)cc1 | 2% | -10% | -8% | -7.0% | 18% | u | -20% | -9%
CC(C)[C@H](NS(=O)(=O)c1cccc(C(F)(F)F)c1)C(=O)OCC(=O)NC(=O)NCc1ccco1 | -9% | 13% | x | x | -11% | u | -2% | x
Cc1cc(C)cc(N2CN=C3SCC(=O)N3C2)c1 | 0% | 24% | 13% | -3.0% | 11% | 6% | -9% | -12%
Cc1ccc(C(=O)N(Cc2ccc3c(c2)OCO3)Cc2nc3ccccc3c(=O)[nH]2)cc1 | -26% | 3% | -2% | 0.9% | x | -28% | -1% | -7%
CSCC[C@H](NC(=O)c1ccc(Cl)c(S(=O)(=O)N2CCCC2)c1)c1nc2ccccc2[nH]1 | u | -1% | u | 15% | 1% | -3% | 3% | -16%
COc1cccc(CN(C(=O)Cc2c[nH]c3ccccc23)C(C(=O)NC2CCCCC2)c2ccc(C)o2)c1 (stereo not drawn) | u | 9% | 30% | -0.4% | 4% | u | -2% | 4%
Cc1nc(SCC(=O)N2c3ccccc3Sc3ccccc32)n[nH]1 | -7% | 12% | -5% | -1.9% | -21% | 0%[46.1 µM] | 0% | 0%
CCOC(=O)c1ccccc1NC(=O)c1nc2nccc(C)n2n1 | 1% | -11% | -12% | 0.6% | -24% | 10% | -5% | 1%
COc1cc(C(=O)O/N=C(\N)Cc2ccc([N+](=O)[O-])cc2)cc(OC)c1OC | 3.2µM* | -7% | -9% | x | u | 2.5µM* | 0% | x
CCCCCCNC(=O)CCCCCNS(=O)(=O)c1ccc(Br)cc1 | x | -21% | x | x | 14% | u | 1% | x
Cc1nc(-c2ccc(Cl)cc2)sc1C(=O)O | 3% | 3% | x | x | 47%[activator] | u | -1% | x
O=C(Cn1ccc2ccccc2c1=O)NCC(=O)N1CCCCC1 | 9%[46.1 µM] | 10% | 1% | x | 3% | -11%[46.1 µM] | -1% | x
CN1CCC(NC(=O)NC2CCCCC2)CC1 | 22%[46.1 µM] | 0% | 3% | x | -16% | 1%[46.1 µM] | -1% | x
CC(C)c1csc(CN2CCN(Cc3ccc(F)cc3)C(CCO)C2)n1 (stereo not drawn) | 4% | 5% | 2% | x | -23% | 4%[46.1 µM] | 0% | x
NC(=O)/C(=C/c1ccco1)NC(=O)c1ccc(Br)o1 | 19% | 6% | x | x | 19% | -15%[46.1 µM] | x | x
O=C(CCC(=O)N1CCOc2ccc(Cl)cc21)N1CCC2(CC1)OCCO2 | 10%[46.1 µM] | 7% | -3% | x | 11% | 7%[46.1 µM] | 2% | x
CCN(C(=O)CSc1nc2ccccc2n1CCc1ccccc1)C1CCS(=O)(=O)C1 (stereo not drawn) | -4% | 10% | -2% | -9.5% | u | 3% | 6% | 8%
O=C(O)/C=C/c1cccc(NC(=O)c2ccc(Cl)cc2)c1 | u | -13% | -1% | x | 23% | -19%[46.1 µM] | 0% | x
CC(C)(C)NC(=O)c1nc2ccccc2s1 | 7% | -25% | -7% | 2.6% | 9% | u | 13% | 2%
O=C(Oc1ccc(F)cc1)c1cccnc1 | x | 2% | 5% | x | -11% | x | -1% | x
COc1ccc(N(C)S(=O)(=O)c2cccc(C(=O)N(C)Cc3ccc(C)o3)c2)cc1 | 5µM* | 2% | -2% | x | -23% | u | 1% | x
O=C(CSc1ncn[nH]1)Nc1c(Br)cc([N+](=O)[O-])cc1Br | 3% | -2% | -4% | -1.3% | -8% | -1% | 11% | -5%
CC(=O)N1CCN(c2ccc(NC(=O)c3ccc([N+](=O)[O-])cc3)cc2)CC1 | 8%[46.1 µM] | -10% | 4% | x | 12% | 2%[46.1 µM] | -2% | x
COc1cc(Cl)c(NS(=O)(=O)c2cc(-c3cc(C)no3)ccc2OC)c(OC)c1 | -7%[46.1 µM] | x | x | -5.4% | 37%[activator] | x | x | -8%
O=C(Nc1cc(S(=O)(=O)N2CCOCC2)ccc1OCC(F)(F)F)C1=COCCO1 | u | 5% | x | x | -12% | -4% | 0% | x
CCC1CCc2c([nH]c3ccccc3c2=O)O1 (stereo not drawn) | 19% | 0% | -21% | -3.9% | 5% | -1% | 9% | -6%
COc1cccc(CN2CC(C(=O)N(C)Cc3ccc(C)cc3)CCC2=O)c1 (stereo not drawn) | x | 8% | -11% | x | 24% | x | 0% | x
Cc1ccc(C(C)C)c(OCc2nnc(SCC(=O)Nc3nccs3)n2C)c1 | 4% | 1% | 3% | 3.1% | -7% | -4% | 2% | u
O=S(=O)(Cc1cccc(C(F)(F)F)c1)c1ncn[nH]1 | 6%[46.1 µM] | -7% | 3% | x | -1% | -13%[46.1 µM] | 0% | x
CC(C)c1c(C(=O)N/N=C/C2CC=CCC2)nnn1-c1nonc1N (stereo not drawn) | 16%[46.1 µM] | 1% | 0% | x | -10% | -1%[46.1 µM] | u | x
CCOC(=O)c1c(C)cc(C)n2c1nc1ccccc12 | 4% | -13% | -13% | 0.8% | -17% | u | -7% | -5%
Cc1cc(C(=O)N2CCc3ccccc32)c2cc(F)ccc2n1 | 2% | 36% | 3% | -8.8% | 57%[activator] | u | -6% | 4%
O=C(CSc1nnnn1-c1ccccc1)Nc1ncc2c(n1)CC(c1ccccc1)CC2=O (stereo not drawn) | -20% | 0% | -1% | -0.7% | 4% | u | -8% | 2%
O=C(CSc1nc2ccc(Cl)cc2[nH]1)NCc1ccco1 | -7% | -4% | -7% | -3.7% | -28% | u | -3% | -6%
CCOC(=O)/C=C1\SCC(=O)N1CC(=O)Nc1ccc(OC)c(OC)c1 | -5% | 5% | -2% | 1.9% | 9% | 7%[46.1 µM] | 1% | -2%
COc1cccc(/C=N\Nc2nncc(-c3ccccc3)n2)c1 | 1% | 0% | 6% | -3.2% | 13% | 3% | -7% | 7%
Cc1occc1-c1nnc(SCC(=O)c2ccccc2)n1CC1CCCO1 (stereo not drawn) | 15% | -7% | u | 1.2% | 9% | 0% | 6% | -1%

Compound activity from PubChem BioAssay.
